# Compound activity: PubChem BioAssay, National Center for Advancing Translational Sciences (NCATS)
# D2 PAM: potentiates the human D2 dopamine receptor allosterically; P14416; DiscoveRx D2 beta-arrestin cells, luminescence, 90 min; 100% = 57 uM dopamine signal; potentiation, % (no concentration beside the values); hit rate 0.23% among 360,000; active = potentiation of 50% or more; inconclusive = 30% to 50%; inactive = 30% or less;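 also: compound concentration not given in the record; tested on top of an EC20 dose of dopamine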
# Target sequence (P14416 whole entry, looked up): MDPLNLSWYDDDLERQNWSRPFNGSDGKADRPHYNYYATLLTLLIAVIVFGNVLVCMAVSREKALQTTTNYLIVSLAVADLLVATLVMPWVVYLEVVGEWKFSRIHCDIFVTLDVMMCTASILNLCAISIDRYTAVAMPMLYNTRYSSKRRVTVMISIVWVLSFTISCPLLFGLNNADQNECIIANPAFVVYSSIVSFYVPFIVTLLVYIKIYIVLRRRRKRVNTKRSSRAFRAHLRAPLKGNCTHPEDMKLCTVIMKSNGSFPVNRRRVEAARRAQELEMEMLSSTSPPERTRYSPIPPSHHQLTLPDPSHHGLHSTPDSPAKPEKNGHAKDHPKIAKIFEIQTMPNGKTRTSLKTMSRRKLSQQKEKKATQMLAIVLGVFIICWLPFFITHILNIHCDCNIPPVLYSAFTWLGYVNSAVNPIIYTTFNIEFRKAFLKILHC
#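 D2 cells co-treated with compound plus 50 nM dopamine (EC20) for 90 min at 37 deg C to detect potentiation. Beta-arrestin recruitment was read as enzyme-fragment luminescence after 1 h at ambient temperature. Full response was set by 57 uM dopamine.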
# TRPV1 PAM: potentiators of human vanilloid receptor 1 (TRPV1) | Q8NER1 | potentiation, % at 8.33 µM | TRPV1-expressing cells, Fluo-8 calcium influx, capsaicin EC20 potentiation; host cell line not named in the record; control for the full effect not named in the record | hit rate 0.02% among 320,000; active means potentiation above 80%; inconclusive means 30% to 80%; inactive means below 30%; also: 0% is about no effect
#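 TRPV1-expressing cells were cultured overnight at 35.5C and loaded with Fluo-8 calcium dye for 40 to 90 min at room temperature. After a 10 s baseline, compound was added and calcium influx was read kinetically for 3 min (ex 480/em 520 nm).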
# Six1-Eya2 blk: Six1/Eya2 interaction inhibition | Q15475+O00167 | AlphaScreen GST-Six1/His-Eya2 binding, biochemical; stronger effect = lower value; control for the full effect not named in the record | activity change, % (concentration not given with the values) | hit rate 0.56% among 360,000 | AID 651725; in the data active = activity change below about -65%; inconclusive = about -30% to -65%; inactive = above about -30%; also: % is scaled to controls: 0 for no effect and ±100 for the full control effect
#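 AlphaScreen with GST-Six1 and His-Eya2 (5X mix: 250 nM and 500 nM), glutathione donor and nickel acceptor beads; buffer 50 mM Tris pH 8.0, 300 mM NaCl, 1 mM TCEP; 1 h at 37 C in the dark.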
# TRPML1 agonist: activates the human TRPML1 channel; Q9GZU1; TRPML1-expressing cells, Ca2+ dye fluorescence, FDSS; host cell line not named in the record; reference of the full effect not given here; activation, % (test concentration not listed); hit rate 0.12% among 410,000; AID 624414; in the data active = activation above about 50%; inconclusive = about 30% to 50%; inactive = below about 30%; also: 0% is about no effect; the text of the record puts the active cut at 80%
# Target sequence (Q9GZU1 whole entry, looked up): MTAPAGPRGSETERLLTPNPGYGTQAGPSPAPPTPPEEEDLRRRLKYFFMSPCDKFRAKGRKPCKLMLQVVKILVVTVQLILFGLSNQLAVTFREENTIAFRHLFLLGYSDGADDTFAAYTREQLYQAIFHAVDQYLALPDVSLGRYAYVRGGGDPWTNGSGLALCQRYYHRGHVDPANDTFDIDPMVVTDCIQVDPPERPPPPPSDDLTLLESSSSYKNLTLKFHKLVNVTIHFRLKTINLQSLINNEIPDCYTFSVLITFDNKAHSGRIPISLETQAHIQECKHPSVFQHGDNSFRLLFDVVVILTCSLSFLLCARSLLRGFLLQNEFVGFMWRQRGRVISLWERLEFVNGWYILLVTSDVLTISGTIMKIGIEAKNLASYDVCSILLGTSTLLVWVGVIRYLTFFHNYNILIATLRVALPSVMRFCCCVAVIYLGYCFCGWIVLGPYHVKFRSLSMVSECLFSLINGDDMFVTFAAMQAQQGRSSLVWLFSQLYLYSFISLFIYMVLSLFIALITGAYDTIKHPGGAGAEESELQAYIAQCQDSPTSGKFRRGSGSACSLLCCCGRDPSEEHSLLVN
#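 TRPML1-DL cells, Tet-induced overnight (~16 h, 37 degrees C), loaded 45-90 min at room temperature with Ca8 no-wash calcium dye plus quencher. FDSS fluorescence: 10 s baseline, compound pin-transfer, 110 s agonist read, then EC80 54-4 (4uM final) and 110 s antagonist read.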
# TRPML1 blocker: human mucolipin-1 channel inhibition; Q9GZU1; hit rate 0.02% among 390,000; activity change, negative = inhibition, % (concentration not given with the values); TRPML1-inducible cells, Ca2+ dye fluorescence, FDSS; stronger effect = lower value; inhibition of EC80 agonist-evoked calcium signal; in the data active means activity change below about -50%; inconclusive means about -30% to -50%; inactive means above about -30%;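 also: stimulus is agonist 54-4 at its EC80 concentration; % is scaled to controls: 0 for no effect and ±100 for the full control effect; compound concentration not given in the record; the text of the record puts the active cut at -80%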
#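 Calcium fluorescence in TRPML1-DL cells induced overnight with Tet: a 110 s read after compound pin addition, then a 110 s antagonist read after challenge with 54-4 at 4 uM final (EC80).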
# CtBP-E1A blk: inhibitors of CtBP/E1A interaction | AlphaScreen GST-E1A/His-CtBP binding, 1536-well; stronger effect = lower value; control for the full effect not named in the record | activity change, % (no concentration beside the values) | hit rate 0.49% among 340,000 | AID 651724; in the data active means activity change below about -65%; inconclusive means about -30% to -65%; inactive means above about -30%; also: % is scaled to controls: 0 for no effect and ±100 for the full control effect; compound concentration not given in the record
#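 Homogeneous bead-based format: GST-tagged E1A captured on glutathione donor beads, His-tagged CtBP on nickel acceptor beads; compounds precede bead addition by 2 h at 37 °C.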
# * hit, by the source's call; ? = inconclusive; / = no result given.
SMILES,D2 PAM,TRPV1 PAM,Six1-Eya2 blk,TRPML1 agonist,TRPML1 blocker,CtBP-E1A blk
O=c1[nH]c(COc2ccc(Cl)cc2Cl)nc2ccccc12,4,0,4,-0.6,-4,4
COc1cc(C2C(C#N)=C(N)Oc3n[nH]c(-c4cccs4)c32)cc(OC)c1O (stereo not given),-1,-4,-23,1.8,-13,-14
COc1cc(Br)c(CC2c3cc(OC)c(OC)cc3CCN2C)cc1OC (stereo not given),-31,/,2,0.0,8,-21
O=C(Nc1ccccc1)NC1CCCc2ccccc21 (stereo not given),-8,-26,10,1.0,-2,/
COc1ccc(-n2nc(C(=O)NCC(=O)N3CCN(c4ccccc4)CC3)c3ccccc3c2=O)cc1OC,1,21,-8,-0.3,6,1
CCOC(=O)c1c(NC(=O)c2cccs2)sc2c1CCN(C(=O)OCC)C2,-14,-8,9,-1.3,-11,10
O=S(=O)(Nc1ccc(-c2nc3cccnc3s2)cc1)c1ccccc1F,12,-7,-16,1.2,-25,-14
Cc1ccccc1Nc1nc(Nc2ccccc2C)nc(SC2=NCCS2)n1,-16,1,-16,1.4,34,-18
Cc1ccc(S(=O)(=O)NCC(=O)OC(C)C(=O)Nc2ncc(Cl)cc2Cl)cc1 (stereo not given),4,?,3,0.7,6,8
Cc1ccc(C)n1-c1sc2c(c1C#N)CCCC2,-17,-5,-3,-0.1,-19,-1
Cc1cccc(N(C)S(=O)(=O)c2ccc3c(c2)CCC(=O)N3)c1,7,-10,16,0.9,-2,54
CCN(CC)CCSc1nc(O)c(-c2ccccc2)c(=O)[nH]1,2,-2,1,-0.3,1,-11
O=C(COc1cccc(F)c1)Nc1nc(-c2cccnc2)cs1,-5,3,3,-0.1,-16,/
Nc1cc(=O)[nH]c(SCC(=O)Nc2cccc(S(=O)(=O)N3CCCCCC3)c2)n1,-16,/,-14,-0.4,-14,-3
COc1cc(NC(=O)c2ccc(Br)cc2)c(OC)cc1NC(=O)c1ccccc1,2,14,-2,/,/,/

# One compound at a time, from the list above. Screens in order: D2 PAM	TRPV1 PAM	Six1-Eya2 blk	TRPML1 agonist	TRPML1 blocker	CtBP-E1A blk
# Cc1ccc(S(=O)(=O)NCC(=O)OC(C)C(=O)Nc2ncc(Cl)cc2Cl)cc1 (stereo not given) in the list: 4	?	3	0.7	6	8
# O=c1[nH]c(COc2ccc(Cl)cc2Cl)nc2ccccc12 in the list: 4	0	4	-0.6	-4	4
# COc1cc(NC(=O)c2ccc(Br)cc2)c(OC)cc1NC(=O)c1ccccc1 in the list: 2	14	-2	/	/	/
# Cc1ccccc1Nc1nc(Nc2ccccc2C)nc(SC2=NCCS2)n1 in the list: -16	1	-16	1.4	34	-18
# Cc1cccc(N(C)S(=O)(=O)c2ccc3c(c2)CCC(=O)N3)c1 in the list: 7	-10	16	0.9	-2	54

# The results go on.
SMILES,D2 PAM,TRPV1 PAM,Six1-Eya2 blk,TRPML1 agonist,TRPML1 blocker,CtBP-E1A blk
COCCCNC(=O)C[C@@H]1C[C@@]2(C(=O)OC)CCCCC=C2N(Cc2ccc(Cl)cc2Cl)C1=O,/,/,-4,-0.1,/,0
CC/C(=N\NC(=O)c1nnn(-c2nonc2N)c1CN(C)c1ccccc1)c1ccccc1,1,-4,-8,-0.5,-19,/
CCC1=Nc2ccccc2NC2=C1C(=O)CCC2,-2,-8,14,0.8,-13,0
O=C(NCc1cccnc1)c1ccc(Cn2cc(C(F)(F)F)ccc2=O)cc1,-5,-1,7,-0.1,-13,-2
CCN1CCCC1CNc1ncnc2c1[nH]c1ccc(Cl)cc12 (stereo not given),-33,4,0,0.5,4,-9
Cc1onc(-c2c(Cl)cccc2Cl)c1C(=O)N1CCN(c2ccccc2F)CC1,-18,-9,-6,0.4,7,-2
Cc1ccc(Cn2nnc3c(=O)n(CC(=O)NCc4ccccc4)cnc32)cc1,-3,18,5,0.1,-3,-6
CCCCn1nnnc1C(c1ccccc1)N1CCN(C)CC1 (stereo not given),/,/,-6,-1.1,/,6
CCCCCCN1C=CC(=C2C(=O)c3ccccc3C2=O)C=C1,-4,-6,10,-0.5,-7,6
O=C(NCC1CCCCC1)c1ccc(=O)[nH]c1,2,0,-4,0.9,-17,-3
Cc1ccc(C)c(NC(=O)c2cnccn2)c1,-6,7,-2,-0.2,-3,-2
C=C(C)Cn1c(C)cc(C)c(S(=O)(=O)c2ccccc2C)c1=O,-5,2,35,0.8,3,22
O=C(CSc1ccc2c(c1)OCCO2)Nc1cccnc1,-2,-6,6,0.7,-10,-13
O=C(CN1CCN(S(=O)(=O)c2ccc(F)cc2)CC1)Nc1ccc2c(c1)OCCO2,-13,1,8,0.6,12,3
O=C(NCCNc1ccc([N+](=O)[O-])cc1)c1cccc2c(Br)cccc12,-7,3,-4,0.7,-4,2
CCOc1cc(C(=O)Nc2cccnc2)cc(OCC)c1OCC,-2,-23,-1,-0.7,6,/
CC(=O)C1C(=O)CC(c2ccc(Cl)cc2)CC1=O (stereo not given),-5,-5,-4,-0.9,-9,6
CC1(C)CC(=O)C(C=NCCN2CCOCC2)=C(O)C1,1,3,-12,0.0,-1,-23
COc1ccccc1/C=N/NC(=O)c1ccccc1NS(=O)(=O)c1ccc(C)cc1,-4,4,2,0.5,11,10
COc1cccc(/C=C/C(=O)c2cccc([N+](=O)[O-])c2)c1OC,-2,-1,-1,1.7,6,-21
O=C(Cc1ccc(N2CCNC2=O)cc1)N1CCCC(Nc2cccc(F)c2)C1 (stereo not given),-6,-9,8,0.9,13,/
O=C(NS(=O)(=O)c1ccc(Cl)cc1)c1ccccc1,-8,14,8,3.1,29,10
S=c1nc(-c2ccccc2)n(Cc2cccnc2)c2c1CCCC2,-7,-3,-6,-0.7,43,1
S=c1[nH]nc(C2CCCCC2)n1/N=C/c1ccncc1,-11,12,14,1.5,24,0
COc1ccc(C(C)(C)NC(=O)C2CCC(=O)N(C3CCCC3)C2)cc1OC (stereo not given),13,16,7,-0.5,13,3
CN(C)CCNc1c(N)c(=O)oc2ccccc12,1,-5,-1,1.1,21,-2
O=C(Nc1ccccc1F)c1cnccn1,1,-7,0,-0.3,31,-12
COc1cc(/C=N\NC(=O)c2ccc(C)nc2)ccc1OC(=O)c1ccc2c(c1)OCO2,-5,-1,-4,0.3,20,/
Cc1c(C)c2ccc(O)c(CN3CCCC3)c2oc1=O,-22,4,2,-0.5,-15,3
COc1cc2c(cc1NC(=O)C(C)OC(=O)C1CC(=O)N(Cc3ccco3)C1)oc1ccccc12 (stereo not given),-6,-14,-16,0.3,-1,-11
CN(CC(=O)N1CCCCCC1)S(=O)(=O)c1cccc2cccnc12,-6,/,7,0.3,12,0
COc1ccc(S(=O)(=O)N2CCOCC2)cc1Br,0,2,2,-0.4,2,2
O=C1N[C@H](Cc2ccccc2)CO1,-10,-14,3,-0.1,3,5
C=CCNc1nc(-c2cccc(OC)c2O)nc2ccccc12,-2,-9,-10,9.4,-15,-19
O=C(CN1C(=O)CSc2ccccc21)NC1CCCC1,-9,0,-2,0.0,15,9
O=C(CCS(=O)(=O)Cc1ccccc1)N1CCN(c2ccc([N+](=O)[O-])cc2)CC1,2,7,-4,0.0,-4,3
COc1ccc(-n2c(SCC(=O)Nc3ccc(C(=O)O)cc3)nnc2-c2cccs2)cc1,-10,14,10,-0.3,-3,6
COCCNC(=O)c1ccccc1NC(=O)CCSc1ccccc1,0,-19,4,0.4,-17,-7
O=C(NC(=S)Nc1cccc(Cl)c1N1CCCC1)c1ccc(-c2cccc([N+](=O)[O-])c2)o1,-7,-27,-5,-0.3,-10,-16
COc1cccc(N2CCN(c3ccc4nnc(CCC(=O)N5CCC(C)CC5)n4n3)CC2)c1,13,1,-5,-1.5,1,-9
CC(=O)Nc1cc(-c2ccccc2N(C)C)cn2c(-c3ccc(F)c(Cl)c3)cnc12,-7,/,-24,0.5,/,-23
CN(C)S(=O)(=O)c1ccc(C(=O)Nc2nnc(SCc3cccc(F)c3)s2)cc1,-3,2,16,0.1,1,25
O=C(Nc1nncs1)c1cc(S(=O)(=O)N2CCCCC2)ccc1Cl,-11,3,7,-1.0,-11,0
CCCc1nc(N2CCN(S(=O)(=O)c3ccc(Cl)cc3)CC2)c2c(C)c(C)sc2n1,-48,7,4,-0.4,-3,0
COc1ccc(-c2ccc(CCC(=O)O)n2CC(C)C)cc1,5,-2,0,2.4,23,3

# Some entries already given with just CtBP-E1A blk and Six1-Eya2 blk.
Molecule	CtBP-E1A blk	Six1-Eya2 blk
O=C1N[C@H](Cc2ccccc2)CO1	5	3
C=CCNc1nc(-c2cccc(OC)c2O)nc2ccccc12	-19	-10
O=C(CN1C(=O)CSc2ccccc21)NC1CCCC1	9	-2
O=C(CCS(=O)(=O)Cc1ccccc1)N1CCN(c2ccc([N+](=O)[O-])cc2)CC1	3	-4
COc1ccc(-n2c(SCC(=O)Nc3ccc(C(=O)O)cc3)nnc2-c2cccs2)cc1	6	10
COCCNC(=O)c1ccccc1NC(=O)CCSc1ccccc1	-7	4
O=C(NC(=S)Nc1cccc(Cl)c1N1CCCC1)c1ccc(-c2cccc([N+](=O)[O-])c2)o1	-16	-5

# More entries follow.
SMILES,D2 PAM,TRPV1 PAM,Six1-Eya2 blk,TRPML1 agonist,TRPML1 blocker,CtBP-E1A blk
O=C(N/N=C/c1ccncc1)C1C2CCCCCCC21 (stereo not given),-7,-17,0,0.8,-3,0
C=C(C)CC1Nc2ccccc2NC1CC(=C)C (stereo not given),6,-16,-17,1.6,19,-10
Cc1ccc(C2=C/C(=C/c3cccs3)C(=O)O2)cc1,-13,-2,-6,0.5,-17,-2
COc1ccc(C(=O)NNC(=O)Cc2ccc([N+](=O)[O-])cc2)cc1,-11,10,5,0.4,-3,-9
Cc1[nH]c(=O)c(C#N)c(C)c1Cc1ccc(Cl)cc1Cl,10,12,11,-0.5,-7,11
Cc1ccc(S(=O)(=O)N2CCN(C(C)CC(=O)O)CC2)cc1 (stereo not given),-12,0,-10,1.1,12,5
CCNC(=O)CN(C1CCCCC1)S(=O)(=O)c1ccc(F)cc1,5,1,4,-1.0,-4,1
CCN(CC)S(=O)(=O)c1cccc(NC(=O)COC(=O)CCC(=O)c2ccc(F)cc2)c1,-10,-14,-4,1.1,29,-13
CC(C)Cc1cc(CN2CCCC(CO)(Cc3cccc(Cl)c3)C2)[nH]n1 (stereo not given),-13,10,-15,0.7,6,8
